# Screening data (PubChem)
# T cruzi repl: inhibitors of intracellular T. cruzi growth, primary screen, luminescence, NIH3T3 host cells; T. cruzi beta-gal in NIH3T3, 90 h; inhibition, % (no concentration beside the values); 300,000 tested, 1.4% active; AID 1885, 2009;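 active = mean inhibition across valid replicates above about 55%, limit read from the data; inconclusive = mean below that limit but half or more replicates reach it; inactive = mean below it, under half of replicates reach it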;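 note: signal also drops with host cell toxicity which is not excluded here; 0% = plate median of DMSO wells and 100% = zero luminescence signal; higher percent means less beta-gal luminescence so fewer parasites; stock transfer was 50 nL into about 50 µL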
# RanGTP-Impb inh: inhibitors of RanGTP-importin-beta interaction, primary screen, biochemical, FRET, CFP-Ran, YFP-importin-beta, homogeneous | AID 2216, 2009 | cell-free CFP-Ran/YFP-importin-beta FRET ratio | 300,000 tested, 1.1% active | inhibition, % (no concentration beside the values) | Ran GTPase (GTP-bound) - importin-beta complex;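 active = most replicates above 15%; inconclusive = exactly half above 15%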;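 note: 0% = DMSO wells and 100% = Ran loaded with GDP instead of GTP; wells of about 40 µL received 100 nL stock; the first replicate is given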
# Calb FLC: C. albicans growth inhibition with fluconazole, primary screen, CaCi-2 strain, Alamar Blue fluorescence | C. albicans CaCi-2 (fluconazole-resistant clinical isolate) + fluconazole, 48 h | growth inhibition, % (test concentration not listed) | 300,000 tested, 0.57% active | AID 1979, 2009;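 active = most replicates above 75%; inconclusive = exactly half above 75%; inactive = most below 75%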;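 note: all wells also contain fluconazole at 8 µg/ml as a sub-toxic cotreatment; 0% = median of DMSO wells and 100% = median of geldanamycin control wells; wells of about 8 µL received 7.5 nL stock; the first replicate is given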
# Beta apoptosis: inhibitors of cytokine-induced beta cell apoptosis, primary screen, luminescence | 300,000 tested, 0.8% active | protection from apoptosis, % (no concentration beside the values) | INS-1E cytokine-induced death, ATP luminescence, 48 h; percent of positive-control rescue, neutral wells zero;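 active = all replicates at 75% or more, or half of them and the mean; inconclusive = half reach 75% but not the mean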;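 note: 0% = cytokine-treated negative control wells and 100% = positive control rescue; higher means more ATP so stronger rescue from cytokine killing; wells of about 40 µL received 100 nL stock; the first replicate is given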
# FGF22 binding: binders of human FGF22 protein, primary screen, FGF22 synaptogenesis inhibitor project, biophysical, thermal shift, single point. 340,000 tested, 1.5% active. AID 651658, 2012. Fibroblast growth factor 22 (Homo sapiens), Q9HCT0. calls only at 9.99 µM. recombinant FGF22 thermal shift, SYPRO orange fluorescence; percent of sucrose octasulfate shift, DMSO zero;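 active = melting point raised past a set limit in the mean and every replicate; inconclusive = no clear call; three in four hits are not shown here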
# Target sequence (Q9HCT0 whole entry, looked up): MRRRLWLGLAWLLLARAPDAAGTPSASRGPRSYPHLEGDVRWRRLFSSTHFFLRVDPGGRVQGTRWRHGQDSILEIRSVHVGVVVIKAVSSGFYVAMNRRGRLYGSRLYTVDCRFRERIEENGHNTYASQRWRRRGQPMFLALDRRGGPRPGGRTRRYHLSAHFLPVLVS
# ALR H2O2 inh: inhibitors of human ALR sulfhydryl oxidase, primary screen, biochemical, H2O2 detection, HRP-luminol luminescence, single point; purified ALR, DTT oxidation; FAD-linked sulfhydryl oxidase ALR (Homo sapiens), P55789; 290,000 tested, 3.8% active; inhibition, % (no concentration beside the values); AID 485317, 2010;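 active = mean and each replicate at 75% or more; inconclusive = only one of the two met; inactive = neither met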;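 note: stock transfer was 7.5 nL into about 7.5 µL; 0% = neutral wells and 100% = wells with inactivated enzyme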
# Target sequence (P55789 whole entry, looked up): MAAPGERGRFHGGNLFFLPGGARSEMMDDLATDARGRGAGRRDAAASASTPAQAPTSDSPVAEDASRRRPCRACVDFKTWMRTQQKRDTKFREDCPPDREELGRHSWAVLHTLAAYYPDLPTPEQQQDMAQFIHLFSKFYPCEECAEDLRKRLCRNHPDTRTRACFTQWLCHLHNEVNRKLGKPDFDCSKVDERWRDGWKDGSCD
# Ecoli rRNA inh: reduced GFP signal of wild-type E. coli, primary screen, bacterial rRNA inhibitor project, GFP/RFP fluorescence, OD600, single point. E. coli WT GFP vs humanized-ribosome RFP mutants, 24 h; hits give low values; DMSO median 0, no signal -100. 350,000 tested, 1.6% active. GFP signal change (wild-type ribosome), % (concentration not given with the values);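 active = significant combined selectivity score with lowered wild-type GFP, culture density cut under 30%, mutant RFP and density less affected; inactive = any of these conditions unmet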; note: one replicate is shown; some compounds called inactive have numbers as strong as hits
# AF4-AF9 inh: inhibitors of AF4 peptide binding to AF9, primary screen, biochemical, AlphaScreen, biotin-AF4 peptide, FLAG-AF9, single point. inhibition, % at 10 µM. Protein AF-9 (Homo sapiens), P42568. 350,000 tested, 0.47% active;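 active = every replicate reaching a set inhibition limit, whatever the replicate mean, cut at about 25% in these data; inconclusive = mean inhibition reaches that limit but some replicates miss it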;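 note: 0% = plate neutral control median and 100% = total signal loss; the record names both 10 and 1 µM as test concentration; the first replicate is given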
# Target sequence (P42568 whole entry, looked up): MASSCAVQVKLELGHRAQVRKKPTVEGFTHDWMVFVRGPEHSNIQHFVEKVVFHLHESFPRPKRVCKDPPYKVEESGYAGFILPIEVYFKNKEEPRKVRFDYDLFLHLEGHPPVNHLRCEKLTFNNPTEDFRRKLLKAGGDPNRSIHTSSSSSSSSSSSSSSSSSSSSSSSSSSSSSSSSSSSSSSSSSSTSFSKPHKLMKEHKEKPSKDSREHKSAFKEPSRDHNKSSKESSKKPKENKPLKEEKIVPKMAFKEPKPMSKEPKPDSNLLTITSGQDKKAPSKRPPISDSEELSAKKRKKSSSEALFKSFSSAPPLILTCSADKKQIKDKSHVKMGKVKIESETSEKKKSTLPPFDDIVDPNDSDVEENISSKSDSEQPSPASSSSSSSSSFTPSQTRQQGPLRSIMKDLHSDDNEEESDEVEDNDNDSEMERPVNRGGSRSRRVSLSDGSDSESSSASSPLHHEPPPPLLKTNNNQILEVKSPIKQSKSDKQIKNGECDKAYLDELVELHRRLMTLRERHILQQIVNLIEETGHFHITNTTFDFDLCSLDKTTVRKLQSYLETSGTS
# Ecoli rRNA inh OD600: also measured in Ecoli rRNA inh; calls as there; OD600 change, %; measured here: OD600 growth;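 optical density of the mix in the first replicate; 0 = DMSO median and -100 = no signal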
# Ecoli rRNA inh RFP: recorded beside Ecoli rRNA inh, whose call it bears; RFP signal change, %; measured here: RFP humanized mutant strains;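 first replicate; 0 = DMSO median and -100 = no signal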
# Numbers without * were called inactive; i = inactive; ? = inconclusive; · = not tested or not shown. This is a subset; count on the stated rates, not on these rows.
SMILES,T cruzi repl,RanGTP-Impb inh,Calb FLC,Beta apoptosis,FGF22 binding,ALR H2O2 inh,Ecoli rRNA inh,Ecoli rRNA inh OD600,Ecoli rRNA inh RFP,AF4-AF9 inh
COc1cccc(N2CCN(c3ccc(S(=O)(=O)N4CCN(C)CC4)cc3[N+](=O)[O-])CC2)c1,·,·,·,2,i,37,-23*,-14*,2.6*,17
Cc1onc(-c2c(F)cccc2Cl)c1C(=O)NCC1COc2ccccc2O1 (stereo not drawn),0,-0.3,7,-1,·,-1,·,·,·,·
COc1ccc(O)c(C2(O)C(=O)c3ccccc3C2=O)c1,-4,2.4,-6,-3,i,17,4,4,-2.7,-0.7
CCC(=O)Nc1ccc(C(=O)CSc2nc3ccccc3cc2CC)cc1,·,·,·,-1,i,1,1,4,0.0,-18
O=C(c1cc2ccccc2oc1=O)N(Cc1ccc(F)cc1)C1CCS(=O)(=O)C1 (stereo not drawn),10,-1.2,-1,-1,i,-8,16,2,-0.2,·
CCOc1ccc(C2CC(=O)NC3=C2C(=O)CCC3)cc1 (stereo not drawn),-19,-0.1,1,-3,·,-3,·,·,·,·
CCn1cc(C(=O)O)c(=O)c2cc(F)c(N3CCN(C(=S)NC(=O)c4ccccc4F)CC3)cc21,-3,-1.1,2,-5,i,·,-51,-80,-28,-0.7
O=C(COC(=O)/C=C/c1ccc(Cl)cc1)Nc1ccc2[nH]c(=O)[nH]c2c1,-4,-2.6,·,-7,i,2,0,3,-0.9,-32
COc1ccc(-n2c(SCC(=O)Nc3nccs3)nc3sc4c(c3c2=O)CCN(C)C4)cc1,36,0.1,13,-7,·,99*,·,·,·,·
Cc1ccc(-n2nnnc2CN2CCCCC2)cc1,0,-6.1,4,-5,i,-8,11,4,0.5,-1.0
CCc1c(C(=O)Nc2nnc(C3CC3)s2)csc1C,-34,3.6,33,-3,i,1,3,-1,7.2,-1.9
COC(=O)C1=C(CS(=O)(=O)c2ccc(OC)c(OC)c2)NC(=O)NC1c1ccc(O)c(OC)c1 (stereo not drawn),-6,-0.7,58,1,i,37,-8,-9,7.0,-11
COc1ccc(S(=O)(=O)N2CCCCC2)cc1NC(=O)Cc1cccs1,·,·,·,0,i,-12,0,5,1.2,0.3
Cn1c(Cc2cccs2)nnc1SCC(=O)Nc1ccccc1F,-3,0.3,3,2,i,3,3,1,1.7,-1.5
COc1cc(C(=O)NCC2CCCN2S(=O)(=O)c2cccs2)cc(OC)c1OC (stereo not drawn),14,9.4,1,·,i,-2,-7,3,2.5,-12
O=C1CCCC2=C1C(c1ccco1)Nc1ccc3ccccc3c12 (stereo not drawn),19,-2.2,2,1,·,-1,·,·,·,·
CCN(CC)c1c([N+](=O)[O-])c(=O)sc2ccccc12,-14,2.6,-4,-4,i,-5,8,9,-0.8,-2.7
COc1cccc(-c2nc(CS(=O)(=O)CC(=O)NCc3ccccc3)c(C)o2)c1,6,-2.8,0,-2,i,·,8,16,-6.5,-1.1
Cc1ccsc1C1C(C(=O)O)c2ccccc2C(=O)N1C (stereo not drawn),7,-2.1,0,0,·,29,·,·,·,·
CCOC(=O)N1CCN(C(=O)COC(=O)CSc2ccc([N+](=O)[O-])cc2)CC1,-6,-1.1,-2,-8,i,23,3,7,-2.8,-1.2
CN(C(=O)COC(=O)c1ccc(=O)n(Cc2ccccc2)n1)c1ccccc1,-4,2.3,23,-9,i,-8,13,1,5.8,-0.9
C#CCSc1n[nH]c(-c2ccco2)n1,4,0.3,-11,-6,i,-3,10,7,1.1,-1.7
O=C(O)CCNS(=O)(=O)c1ccc(Oc2ccccc2)cc1,-1,2.2,7,-1,·,47,·,·,·,·
CCOC(=O)CCC(NC(=O)CCCCCCCC(=O)NC(CCC(=O)OCC)C(=O)OCC)C(=O)OCC (stereo not drawn),-4,3.1,-2,-2,i,·,·,·,·,-2.5
O=C(CSC(=S)N1CCOCC1)Nc1ccc(S(=O)(=O)Nc2ncccn2)cc1,28,3.1,2,-5,i,42,11,8,-0.4,0.4
CC(C)(C)NC(=O)CSc1nnc(Cc2ccccc2)n1CC1CCCO1 (stereo not drawn),3,0.4,4,1,i,-1,23,24,5.0,-3.7
CCOC(=O)C(C)NC(=O)CCc1nnc2ccc(N3CCC(C)CC3)nn12 (stereo not drawn),-9,9.4,-1,-4,i,2,1,1,-3.2,-1.0
COc1ccc(NC(=O)N2CCN(C(=O)Nc3ccc(OC)cc3)CC2)cc1,-10,-3.6,-2,-5,i,-14,9,4,-2.1,-4.6
CNC(=S)N(CCc1c(C)[nH]c2ccc(C)cc12)Cc1cccnc1,13,-6.9,0,-5,i,·,-9,-15,0.1,11
CCCN(CCC)c1nc(Cl)nc(NCc2ccco2)n1,24,0.9,10,-2,·,-9,·,·,·,·
CCN(C(=O)C1CSC2(C)CCC(=O)N12)c1nc2c(C)cccc2s1 (stereo not drawn),-7,-1.1,-13,4,i,-12,6,2,1.0,-0.5
CCNC(=O)COC(=O)c1cc(S(=O)(=O)N2CCCc3ccccc32)ccc1Cl,-7,-2.8,7,8,i,-2,-20,-19,-11,0.5
CCC(C)n1cnc2c(=O)oc3ccccc3c21 (stereo not drawn),-26,1.4,-1,3,i,-3,-1,5,-2.3,0.5
Cc1ccc(CCNS(=O)(=O)c2cnc[nH]2)cc1,13,3.6,-1,0,·,1,·,·,·,·
O=C(C[C@H]1C/C=C/CC[C@@H](Cc2ccc(F)cc2)C(=O)O[C@@H](c2ccccc2)CNC1=O)NCCO,·,·,·,-7,i,-3,2,-1,-4.7,-4.4
CCN(CC)CCCC(C)NC(=O)c1cc(=O)c2ccccc2o1 (stereo not drawn),19,-1.3,-2,-7,·,-36,20,9,1.6,-0.9
O=C(O)COc1ccccc1Cc1ccccc1,-20,0.0,-2,0,·,-8,·,·,·,·
O=C(CSc1nc(O)c(C2CCCCC2)c(=O)[nH]1)Nc1ccc(F)cc1,5,-0.3,-3,-17,i,99*,-3,3,-2.0,-1.8
Cc1cccnc1NC(=O)c1ccc2c(c1)NC(=O)C(C)S2 (stereo not drawn),-10,-1.1,4,-5,i,1,1,4,-0.2,1.7
COc1ccc(C(=O)Nc2ccc3ccccc3n2)c(OC)c1OC,-2,2.7,9,5,i,3,20,16,5.1,-2.8
CN(C)S(=O)(=O)c1cccc(NC(=O)CN2C(=O)C3C4C=CC(C4)C3C2=O)c1 (stereo not drawn),6,0.2,-10,-11,·,-8,·,·,·,·
COc1ccc(CCNC(=O)C2CCCN(C(=O)c3ccc(Cl)cc3)C2)cc1 (stereo not drawn),7,1.1,10,-5,i,-1,-4,-23,-1.5,-2.2
CCOC(=O)NC(=O)CSc1ccc2ccccc2n1,-7,-1.0,11,-4,i,·,-4,-5,-2.8,-4.5
COc1ccc(NC(=O)CCCCn2c(=O)[nH]c3ccccc3c2=O)cc1,-7,-1.4,4,·,·,-2,·,·,·,·
N#Cc1cn(CC(=O)O)c2ccccc12,-12,-1.3,-1,-3,·,10,·,·,·,·
O=C(CCCc1ccccc1)Nc1nccs1,3,-1.8,3,3,i,0,-3,-8,-2.8,-1.2
Cc1cc(CC(C)C)n(-c2nc3ccccc3c(=O)n2OCc2ccccc2)n1,16,-2.6,2,-2,·,-10,·,·,·,·
COc1ccc(OC)c(C2C(C(C)=O)=C(C)Nc3ncnn32)c1 (stereo not drawn),0,-4.5,-9,-4,i,-12,16,16,0.8,0.1
O=C(O)CCC(=O)N1N=C(c2ccco2)CC1c1ccco1 (stereo not drawn),-18,?,28,·,i,-8,15,15,2.3,-1.5
Cc1ccc(S(=O)(=O)NCCC(=O)N2CCN(S(=O)(=O)c3cccc(F)c3)CC2)cc1C,2,4.8,5,·,i,-2,3,3,0.7,-22
# Further compounds follow.
SMILES,T cruzi repl,RanGTP-Impb inh,Calb FLC,Beta apoptosis,FGF22 binding,ALR H2O2 inh,Ecoli rRNA inh,Ecoli rRNA inh OD600,Ecoli rRNA inh RFP,AF4-AF9 inh
CC(C)(C)n1nnnc1C(c1cccc(C(F)(F)F)c1)N1CCOCC1 (stereo not drawn),-12,-0.3,-14,-3,i,-10,8,9,11,8.3
COc1ccc(C)cc1S(=O)(=O)N1CCC(C(=O)N2CCOCC2)CC1,-2,-4.5,-5,-10,·,-9,·,·,·,·
CCc1ccc(NC(=O)NCc2ccccn2)cc1,-5,0.9,11,-8,i,3,4,-18,-1.9,-0.9
O=C(CN1CCN(S(=O)(=O)c2ccc(F)cc2)CC1)NCC1(N2CCOCC2)CCCCC1,·,·,·,4,i,·,2,4,3.0,-16
O=C(COC(=O)c1cccc(F)c1)NC1CC1,-11,-1.4,21,-1,i,-7,7,8,-1.2,2.2
CN(Cc1ccccc1)S(=O)(=O)c1ccc(N2CCOCC2)nc1,-7,4.9,-16,-2,i,-4,10,6,-0.9,0.6
CCc1c(O)nc(SCC(=O)Nc2ccccc2C)[nH]c1=O,-3,-0.9,-3,-6,·,99*,·,·,·,·
CCCCNC(=O)NS(=O)(=O)c1ccc(NS(=O)(=O)c2ccccc2)cc1,-6,3.1,-11,3,·,2,·,·,·,·
O=C(CCCCCCN1C(=O)c2ccccc2C1=O)NC1CCCCC1,9,0.2,1,-9,·,1,·,·,·,·
COc1cc(S(=O)(=O)N2CCOCC2)ccc1NC(=O)CSc1nnc(N)s1,-8,-2.9,-5,-7,·,-6,·,·,·,·
CCOc1ccc(CN2C(=O)c3ccccc3C2=O)cc1C(=O)O,-12,-1.7,-2,-9,i,·,5,-2,-1.7,-12
COc1ccc(C(=O)OCC(=O)N2CCc3ccccc3C2)cc1OC,·,·,·,-2,i,15,-13,-10,3.0,-2.1
CC1CCc2nc(NC(=O)c3cc(C(C)(C)C)nn3C)sc2C1 (stereo not drawn),12,6.2,-7,16,i,-2,6,2,3.6,2.1
CC1CC(C)CN(CCCNC(=O)Cc2c(C(=O)O)[nH]c3ccccc23)C1 (stereo not drawn),-1,0.6,42,-2,·,-5,·,·,·,·
CCOc1ccccc1N1CCN(Cc2ccc(Br)s2)CC1,2,3.0,-13,2,·,20,·,·,·,·
CC(C)(C)c1ccc(C(=O)NCCCNC(=O)c2cccnc2)cc1,-3,-0.3,-5,·,i,5,-1,-9,-0.2,?
